Bioassay records as filed in PubChem.
BRCT inh red = inhibitors of human BRCA1 BRCT-phosphoprotein interaction (red fluorophore). AID 892. Potency, µM (series often up to 76.9 µM), for the others: top-dose activity change, negative = inhibition, usual class: inhibitors. P38398. BRCT-phosphopeptide binding, red fluorescence polarization. actives 0.03% (n = 75,000); further: on the % scale 0 is the no-effect control and ±100 the full control effect
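Fluorescence polarization: 100 nM His-tagged BRCA1 BRCT with 100 nM TAMRA-labelled phospho-BACH1 decapeptide, phosphate buffer pH 7.3 with 150 mM NaCl, DTT, 0.01% Tween 20; 12 min RT. Binding inhibition seen as FP decrease.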
USP2a inhib = inhibitors of human ubiquitin-specific protease USP2a; O75604; USP2a enzymatic assay, qHTS inhibition; Potency, µM (series often up to 38.3 µM), without a hit: at the highest dose activity change, negative = inhibition, hits mostly inhibitors; actives 0.1% (n = 60,000); AID 927;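 further: potency means the concentration at half of the fitted maximal effect; nearly all actives have a fitted effect of over 60% in size; plate controls were DMSO for no effect and NEM full inhibition control for full effect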
Target sequence (O75604 whole entry, looked up): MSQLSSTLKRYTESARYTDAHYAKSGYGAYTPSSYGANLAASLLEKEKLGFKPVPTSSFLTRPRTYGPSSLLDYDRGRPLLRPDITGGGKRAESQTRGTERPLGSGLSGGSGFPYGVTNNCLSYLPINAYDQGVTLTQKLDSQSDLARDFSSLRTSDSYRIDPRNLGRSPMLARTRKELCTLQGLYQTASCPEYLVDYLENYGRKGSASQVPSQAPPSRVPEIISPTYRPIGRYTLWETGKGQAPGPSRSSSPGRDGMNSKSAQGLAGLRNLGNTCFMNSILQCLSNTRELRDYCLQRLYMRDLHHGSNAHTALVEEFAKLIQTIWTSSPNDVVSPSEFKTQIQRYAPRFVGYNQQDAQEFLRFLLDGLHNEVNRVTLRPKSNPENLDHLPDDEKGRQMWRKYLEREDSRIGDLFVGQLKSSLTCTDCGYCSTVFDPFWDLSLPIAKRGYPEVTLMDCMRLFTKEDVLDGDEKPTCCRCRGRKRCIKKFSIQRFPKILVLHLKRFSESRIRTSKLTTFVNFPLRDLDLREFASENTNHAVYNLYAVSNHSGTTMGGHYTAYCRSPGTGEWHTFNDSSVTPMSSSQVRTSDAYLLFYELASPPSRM
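Coupled readout: USP2-cleaved Ub-PLA2 (20nM final) turns over NBD C6-HPC (20uM final), Ex 460nm/Em 535nm after 2.5 h, time-zero read flagging artifacts. Enzyme (20nM final, pH 8.0 Tris) given 30 min RT with compound first; NEM defines full inhibition.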
HEK293 cAMP ctrl = parental HEK293 cAMP activation (counter-screen) | parental HEK293 CNG cAMP sensor, membrane potential fluorescence | Potency, µM (titrated, usually from 57.1 µM), inactives show top-dose activation, actives largely listed as activators | actives 2.5% (n = 73,000) | AID 938; further: potency means the concentration at half of the fitted maximal effect; % of control where 0% means no effect; nearly all actives have a fitted effect of over 55% in size
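Parental HEK 293 cells stably expressing a cAMP-gated CNG channel were loaded with membrane potential dye containing 100 uM RO 20-1724 for 60 min. Compound added for 30 min; depolarization read as fluorescence intensity at 590 nm.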
Tau fil binding = binds recombinant human tau filaments | P10636 | recombinant tau filaments, thioflavin S fluorescence, 15 h; filaments grown with octadecylsulfate alongside compound | Potency, µM (series often up to 57.1 µM), for the others: top-dose activity change, negative = inhibition | actives 2% (n = 71,000);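 further: potency means the concentration at half of the fitted maximal effect; on the % scale 0 is the no-effect control and ±100 the full control effect; actives lower thioflavin S fluorescence by blocking filaments or displacing dye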
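Read-out: ThS fluorescence, 450 nm excitation/510 nm emission; lower signal marks blocked filament formation or displaced dye. Tau at 1 uM with 30 uM ODS, 10 uM ThS, 5 mM DTT, 100 mM NaCl, 10 mM HEPES pH 7.4; 15 h, 37 C.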
Caspase-1 inhib = blocks human caspase-1 allosterically or competitively; P29466; Caspase-1 enzyme, Ac-WEHD-AFC fluorogenic rate; Potency, µM (top dose mostly 57.5 µM), for inactives: at the top dose activity change, negative = inhibition, hits mostly inhibitors; actives 0.03% (n = 75,000); AID 900;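 further: potency means the concentration at half of the fitted maximal effect; plate controls were vehicle for no effect and no substrate for full effect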
Target sequence (P29466 120-297 limits assumed): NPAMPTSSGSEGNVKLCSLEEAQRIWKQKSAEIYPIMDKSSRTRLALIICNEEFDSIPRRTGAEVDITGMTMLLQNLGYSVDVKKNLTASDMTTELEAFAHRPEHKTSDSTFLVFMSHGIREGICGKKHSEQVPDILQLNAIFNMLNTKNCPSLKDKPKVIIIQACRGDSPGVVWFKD
Target sequence (P29466 317-404 limits assumed): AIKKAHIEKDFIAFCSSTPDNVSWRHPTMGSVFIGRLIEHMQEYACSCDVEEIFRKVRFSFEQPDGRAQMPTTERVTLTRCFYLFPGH
BRCT PPI green = blocks human BRCA1 BRCT binding to phosphopeptide, green readout | BRCA1 BRCT-phosphopeptide binding, green fluorescence polarization | P38398 | actives 0.05% (n = 75,000) | Potency, µM (series often up to 76.9 µM), inactives show at the highest dose activity change, negative = inhibition, most hits filed as inhibitors | AID 875;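 further: potency means the concentration at half of the fitted maximal effect; plate controls were peptide without protein for full effect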
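Compounds were incubated for 12 min at room temperature with a complex of 100 nM fluorescein-tagged pBACH1 decapeptide and 250 nM His-tagged BRCT protein. Buffer was phosphate pH 7.3 with EDTA, DTT and Tween 20. Disruption of binding lowers the polarization signal.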
Pol III holo inh = inhibitors of bacterial DNA polymerase III holoenzyme | reconstituted DNA polymerase III holoenzyme replication, biochemical | Potency, µM (titrated, usually from 57.1 µM), for inactives: at the top dose activity change, negative = inhibition | actives 0.25% (n = 71,000) | AID 603; further: potency means the concentration at half of the fitted maximal effect; on the % scale 0 is the no-effect control and ±100 the full control effect
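Reconstituted *E. coli* holoenzyme (0.35 nM Pol III, 1 nM beta, 154 nM SSB, 2 nM primase) was preincubated with compound for 15 min at RT. Synthesis on 1.4 nM ssM13Gori ran 35 min, then was stopped with PicoGreen/EDTA and read as dsDNA fluorescence.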
Rhodamine fluor = compound autofluorescence in rhodamine spectral region. max dye-equivalent concentration, M. Rhodamine-region fluorescence, 547/598 nm, Tris buffer; stronger effect = higher value. actives 0.05% (n = 59,000); in the data active means max dye-equivalent concentration above about 11 nM; inconclusive means between about 1.1 nM and that limit
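Compound fluorescence in 100 mM Tris, pH 8.0, read after 15 min at room temperature with 547 nm excitation and 598 nm emission. Output is dye-equivalent concentration from an on-plate rhodamine standard series.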
Casp7 inh = blocks human caspase-7 allosterically or competitively | Potency, µM (series often up to 57.5 µM), for inactives: at the highest dose activity change, negative = inhibition, most hits filed as inhibitors | P55210 | actives 0.02% (n = 75,000) | recombinant caspase-7, Ac-DEVD-AFC fluorescence rate; active means well fitted inhibition curve with a large enough effect in the main read-out, with a control signal flat, not every such curve was filed as active; inconclusive means small, poorly fitted or top-dose-only effect, or a change in a side signal; further: potency means the concentration at half of the fitted maximal effect; % of control where 0% means no effect
15-hLO inh = blocks human 15-lipoxygenase activity. purified 15hLO-1, xylenol orange hydroperoxide absorbance. Potency, µM (doses to about 57.1 µM), for inactives: top-dose activity change, negative = inhibition, most hits filed as inhibitors. actives 1.4% (n = 74,000); further: potency means the concentration at half of the fitted maximal effect; on the % scale 0 is the no-effect control and ±100 the full control effect; nearly all actives have a fitted effect of over 55% in size
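Hydroperoxide formed from arachidonic acid (50 uM) by purified human 15hLO-1 (40 nM) oxidizes ferrous iron, and the ferric-xylenol orange complex is read at 573 versus 405 nm. Compounds were preincubated 15 min; reaction ran 6 min at room temperature.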
* marks the source's active call; other numbers are inactive results; i = inactive; ? = inconclusive; nt = not tested or not shown; [ ] = dose if it differs, or a comment. Unless noted, the call rests on the fitted dose curve; in most records, active means well fitted curve in the direction sought with a large enough effect; inconclusive means small, poorly fitted or top-dose-only effect, or another doubt; inactive means no such curve, though single readings can be large; an effect the other way counts as inactive or inconclusive. Only part of the results is shown. The share of hits here may be higher or lower than overall.

Structure,15-hLO inh,USP2a inhib,Caspase-1 inhib,Casp7 inh,BRCT PPI green,Pol III holo inh,BRCT inh red,Rhodamine fluor,Tau fil binding,HEK293 cAMP ctrl
CCCCOc1ncnc2c1[nH]c1ccc(F)cc12,-9.0%,-7.0%,-0.4%,0.3%,-2.0%,-4.9%,0.5%,i,21.3%,?
COc1ccc(C2/C(=C(\O)c3cc(C)ccc3C)C(=O)C(=O)N2CCN(C)C)cc1OC (stereo unspecified),-3.9%,0.8%,0.7%,2.2%,-5.6%,-3.1%,-0.3%,i,2.5%,14.9%
CCOc1ccc(C(=O)NCCCn2ccnc2)cc1,5.4%,-0.6%,-0.2%,0.8%,1.0%,-2.6%,0.7%,i,0.9%,-0.7%
CCC1c2ccc(C)n2CCN1C(=O)Nc1ccc(F)cc1 (stereo unspecified),?,8.0%,?,?,-4.0%,6.5%,-8.0%,i,182.6%,4.3%
Cc1ccc(S(=O)(=O)N(C)Cc2nc(-c3ccccn3)no2)cc1,-4.5%,5.1%,-2.1%,-0.7%,-5.2%,-6.5%,0.7%,i,-4.7%,-6.6%
C=CCn1c(N)c(C(=O)NC2CCCCC2)sc1=S,-4.8%,-7.9%,0.8%,-0.2%,-1.0%,5.4%,0.1%,i,-6.5%,-0.4%
O=C(CN(Cc1ccccc1)S(=O)(=O)c1ccc2c(c1)OCCO2)Nc1ccc2c(c1)OCCO2,-5.7%,nt,-5.3%,-1.2%,-3.3%,nt,1.1%,nt,nt,17.9%
Cn1ncc2c1ncn1c(-c3ccccc3Cl)nnc21,7.5%,15.3%,-0.8%,-1.1%,-1.0%,2.8%,0.1%,i,-11.1%,3.0%
O=S(=O)(Nc1nc2ccccc2nc1NCCN1CCOCC1)c1cccc(Cl)c1,1.9%,-10.3%,0.2%,-0.2%,-1.6%,-3.9%,1.6%,i,1.0%,2.9%
CN(c1ccccc1C(=O)NCc1ccccn1)S(C)(=O)=O,7.0%,3.4%,-1.9%,-1.7%,-2.7%,-3.5%,0.2%,i,8.1%,-3.2%
C/C(N)=C(/C#N)C(=O)CSc1ccc2c(c1)OCCO2,-7.5%,0.8%,-1.6%,-0.6%,-0.9%,1.3%,-0.2%,i,-0.3%,-1.8%
CCNC(=O)CC1C(=O)N(c2ccccc2)C(=O)N1Cc1ccc(OC)cc1 (stereo unspecified),19.3%,-4.7%,1.8%,0.8%,-0.9%,1.5%,1.7%,i,14.7%,-5.1%[2.29 µM]
COc1ccc(OCC(O)CON2C(=O)c3ccccc3C2=O)cc1 (stereo unspecified),5.8%,-0.9%,0.1%,-0.7%,-3.8%,-5.7%,-0.9%,i,-1.4%,1.5%
O=C(Nc1nnc(COc2ccc(Cl)cc2)s1)C1CCCO1 (stereo unspecified),7.94µM*,5.8%,0.6%,-1.6%,0.8%,-3.3%,-1.5%,i,-13.2%,10.9%
CCCCCSc1nnc(-c2cc(Br)ccc2N)c(=O)[nH]1,-7.6%,0.9%,-0.1%,-0.7%,-0.3%,-8.1%,-2.3%,i,10µM*,?
COc1ccc(CNc2ncnc3ccc(-c4ccccc4C#N)cc23)c(OC)c1,-9.3%,133.0%[activator],-11.0%,-5.3%,-1.8%,-0.1%,-1.4%,i,398.3%,28.0%
CCOC(=O)Cn1c(=O)n(C2CCCC2)c(=O)c2ccccc21,1.2%,-2.9%,-0.8%,-2.9%,-0.6%,-3.0%,0.9%,i,-4.5%,26.4%
COc1ccc(S(=O)(=O)N2CCCC2C(=O)Nc2nnc(-c3cccnc3)s2)cc1 (stereo unspecified),-18.1%,11.0%,-0.9%,-2.4%,-1.1%,-6.3%,-0.1%,i,-9.5%,-8.8%
O=C(Nc1ccc2c(c1)OCCO2)c1ccc(NC(=O)C2CCCO2)cc1 (stereo unspecified),3.2%,-2.8%,-0.7%,1.9%,0.4%,-1.6%,-0.3%,i,-4.8%,-0.6%
O=S(=O)(c1cccc(C(F)(F)F)c1)N1CCC(O)(c2cccnc2)CC1,3.6%,9.0%,-0.7%,0.0%,-0.8%,-4.1%,-0.9%,i,5.8%,10.8%
COc1ccc(S(=O)(=O)N2CCCC2C(=O)Nc2nc3c(s2)CCCC3)cc1 (stereo unspecified),-2.7%,34.1%[activator],-0.6%,-5.3%,-0.8%,-3.7%,-4.2%,i,2.3%,9.5%
O=C1COc2ccc(OCc3ccc(F)cc3)cc21,0.7%,20.5%,-0.5%,-2.6%,2.0%,-6.0%,-1.1%,i,-2.9%,18.3%
Cc1n[nH]c(=O)nc1N1CCc2ccccc2C1,5.7%,2.9%,0.7%,-1.5%,0.4%,-4.8%,-2.5%,i,2.4%,-4.0%
O=C(CCCC(=O)OCC1CCCO1)OCC1CCCO1 (stereo unspecified),5.9%,1.4%,1.4%,0.9%,-0.1%,-1.2%,1.8%,i,10.0%,3.7%
Clc1ccc(OCc2nn3c(C4CCCCC4)nnc3s2)cc1,?,1.1%,-5.0%,-6.1%,1.5%,-1.3%,-0.8%,i,23.6%,19.3%
O=C(CC1Oc2ccccc2NC1=O)NC1CC1 (stereo unspecified),5.1%,nt,-1.9%,-1.4%,0.7%,-0.8%,-0.2%,nt,-4.6%,-3.4%
Cn1nc(-c2ccc(Cl)cc2)c2cc(C(=O)NCC3CCCO3)sc21 (stereo unspecified),-16.7%,nt,-2.3%,-3.5%,2.8%,-19.1%,-1.9%,nt,81.2%,13.0%
c1ccc(-c2nnc(N3CCN(c4ccccn4)CC3)c3ccccc23)cc1,5.1%,8.1%,-1.0%,-1.0%,2.2%,-7.3%,0.8%,i,9.6%,25.9%
COC(=O)C1CCN(S(=O)(=O)Cc2ccccc2)CC1,-27.1%,nt,-4.8%,-1.0%,-0.8%,-1.8%,-2.8%,i,-11.4%,0.9%
c1ccc(Cc2nn3c(C4COc5ccccc5O4)nnc3s2)cc1 (stereo unspecified),?,35.5%[activator],-1.2%,-4.3%,2.0%,6.3%,-1.0%,i,-16.1%,4.7%
CCOC(=O)CSc1nc(-c2ccc(OC)cc2)ns1,?,-8.9%,-1.2%,-1.1%,-3.4%,-7.3%,-2.7%,i,-1.7%,9.2%
CCc1ccc2[nH]cc(C(=O)OCCOC)c(=O)c2c1,1.8%,-1.8%,0.4%,6.4%,0.1%,55.2%,-1.4%,i,4.6%,5.5%
CCOc1ccc(-c2nnc(-c3ccco3)o2)cc1OCC,3.8%,5.8%,1.2%,-1.2%,0.6%,-4.2%,-2.7%,i,8.8%,9.2%
CCOC(=O)CSc1cc(C)nc(NC(C)=O)n1,2.2%,-8.3%,-1.9%,1.8%,-1.8%,-5.5%,0.9%,i,8.3%,2.8%
COc1ccc(C(=O)N2CCC[C@@]3(CCN(C(=O)Nc4cccc(C#N)c4)C3)C2)cc1,-5.3%,45.2%[activator],-0.3%,0.4%,-1.1%,-15.6%,-1.6%,i,-11.8%,6.5%
CCOC(=O)N1CCN(C(=O)CN(C2CCCCC2)S(C)(=O)=O)CC1,10.5%,-0.4%,0.0%,0.5%,-2.8%,-3.2%,0.6%,i,-5.9%,2.2%
COC(=O)c1ccc(CSc2nc(-c3ccco3)cc(C(F)(F)F)n2)o1,-26.4%,20.3%,-5.0%,-5.6%,4.0%,-5.7%,-0.5%,i,?,?
CN(C)c1ccc(-c2cncnc2NCCN2CCOCC2)cc1,?,0.9%,-4.7%,-7.5%,-0.7%,8.0%,-0.2%,i,-25.8%,-1.4%
O=C(O)Cc1ccc(C(=O)c2cccs2)s1,-2.3%,?,-1.4%,-0.9%,-1.2%,-15.0%,0.1%,i,1.2%,10.8%
CCNC(=O)CC1C(=O)N(c2ccc(C)cc2)C(=O)N1Cc1ccccn1 (stereo unspecified),10.0%,-4.1%,-1.2%,-1.5%,0.6%,-5.0%,0.7%,i,3.4%,22.7%
O=C(NCCc1c[nH]c2ccccc12)c1cnc2sccn2c1=O,-7.8%,nt,-1.4%,2.1%,-1.0%,-7.0%,-0.1%,nt,-7.0%,1.1%
c1ccc(-c2nn3c(Cn4cnc5ccccc54)nnc3s2)cc1,?,12.4%,0.8%,0.3%,5.7%,-7.0%,-2.2%,i,13.5%,1.6%
Cc1cc(C)c2c(=O)n(CC(=O)NCCCN3CCN(c4ccccc4F)CC3)sc2n1,?,nt,-3.3%,-1.2%,-0.7%,-3.1%,-1.5%,nt,?,4.5%
Cc1ccc(Nc2nc(N)nc(CN3CCN(C(=O)c4ccco4)CC3)n2)cc1Cl,-16.0%,50.2%[activator],-3.9%,-0.7%,0.4%,2.8%,0.7%,i,5.7%,3.7%
Oc1ccc2c(c1)oc1cc(O)ccc12,12.6µM*,10.6%,1.3%,-2.3%,-2.5%,-1.4%,0.8%,i,-19.3%,-0.6%
CC1(C)CC(=O)c2cc(OCC(=O)NCCCN3CCN(c4ccccc4F)CC3)ccc2O1,-3.9%,17.9%,-11.7%,-10.0%,-1.5%,3.3%,-0.9%,i,-11.8%,?
